Assay outcomes: PubChem BioAssay, Broad Institute
HepG2 viability: viability loss in HepG2 hepatoma cells – cell-based, ATP luminescence, cherry-pick, activator set 2, cytotoxicity control, dose response (AID 1053143); AC50 in µM for hits, for the others activity change, negative = cytotoxicity, % at the top dose, mostly 26 µM; 3,400 compounds, 3.7% hits; HepG2 viability, CellTiter-Glo ATP luminescence, 72 h;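 active = fitted AC50 at most twice the highest valid dose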;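 also: 0 = neutral control and -100 = positive control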
* = called active by the depositor. A portion of the library; the hit share may differ from the screen's.

SMILES	HepG2 viability
CN(C)CCCN=Cc1c(O)n(CCc2ccc(F)cc2)c(=O)[nH]c1=O	-10%
CC(NC1=NCCS1)c1ccccc1 (configuration not stated)	6%
Cc1oc(C(=O)Nc2ccc(O)cc2)cc1COc1ccccc1	-24%

3 entries out of the list, ordered by heavy-atom count, falling.
SMILES	HepG2 viability
CN(C)CCCN=Cc1c(O)n(CCc2ccc(F)cc2)c(=O)[nH]c1=O	-10%
Cc1oc(C(=O)Nc2ccc(O)cc2)cc1COc1ccccc1	-24%
CC(NC1=NCCS1)c1ccccc1 (configuration not stated)	6%
